Screens deposited in PubChem BioAssay by National Center for Advancing Translational Sciences (NCATS).
A647 fluor = A647 region autofluorescence | Compound fluorescence, A647 channel (570/671 nm), Tris buffer | max dye-equivalent concentration, M | 59,000 tested, under 10 active | AID 592; active means above 1 µM dye equivalent; inconclusive means 0.1 to 1 µM; inactive means 0.1 µM or less;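 note: values scaled relative to a standard on each plate; highest value over a series up to 38 µM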
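Fluorescence read (570 nm ex, 671 nm em) after 15 min RT incubation of compounds in 100 mM Tris buffer, pH 8.0; values expressed as dye-equivalent concentration against a six-point A647 standard series on each plate.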
TSHR ag = agonists of human thyroid stimulating hormone receptor; HEK293-CNG-TSHR cells (CNG channel as cAMP sensor), membrane potential dye, cAMP; Potency, µM (highest dose often 57.1 µM), inactives show at the top dose activation, hits mostly activators; 73,000 compounds, 0.48% hits; AID 926; active = well fitted activation curve of enough size with the parental cells flat; inconclusive = any curve in the parental cells; inactive = parental cells flat and receptor cells flat or falling; note: potency is the fitted concentration of half-maximal effect; % of control where 0% means no effect; weak receptor curves with flat parental cells got no call and are not listed
Target sequence (P16473 whole entry, looked up): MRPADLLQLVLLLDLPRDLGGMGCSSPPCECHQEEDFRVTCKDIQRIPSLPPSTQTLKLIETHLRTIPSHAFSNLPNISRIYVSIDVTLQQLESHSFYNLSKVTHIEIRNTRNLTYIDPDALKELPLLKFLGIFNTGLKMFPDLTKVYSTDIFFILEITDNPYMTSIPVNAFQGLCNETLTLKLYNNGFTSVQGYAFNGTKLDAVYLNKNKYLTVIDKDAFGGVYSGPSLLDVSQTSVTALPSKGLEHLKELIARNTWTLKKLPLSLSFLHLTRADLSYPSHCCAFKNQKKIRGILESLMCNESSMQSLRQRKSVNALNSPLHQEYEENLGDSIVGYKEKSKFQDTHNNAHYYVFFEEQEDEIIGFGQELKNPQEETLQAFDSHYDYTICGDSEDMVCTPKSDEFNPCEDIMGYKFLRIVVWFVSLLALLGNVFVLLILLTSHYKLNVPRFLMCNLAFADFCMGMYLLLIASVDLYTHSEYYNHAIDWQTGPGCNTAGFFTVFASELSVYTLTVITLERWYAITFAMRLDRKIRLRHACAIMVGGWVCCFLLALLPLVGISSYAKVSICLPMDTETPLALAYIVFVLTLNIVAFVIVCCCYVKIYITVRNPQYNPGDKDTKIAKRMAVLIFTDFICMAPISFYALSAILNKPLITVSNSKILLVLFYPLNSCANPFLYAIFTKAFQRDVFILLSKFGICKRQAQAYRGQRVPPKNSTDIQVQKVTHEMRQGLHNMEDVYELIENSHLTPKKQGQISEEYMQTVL
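cAMP rise detected as CNG-channel membrane depolarization by fluorescent dye (emission 590 nm), 30 min after compound, following 60 min dye loading containing 100 uM RO 20-1724 at room temperature. Cells: TSHR/CNG HEK 293, with parental CNG HEK 293 as control.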
A488 fluor = compound fluoresces in the A488 spectral region. compound autofluorescence, A488 spectral region, dye equivalency; stronger effect = higher value. 59,000 compounds, 0.1% hits. max dye equivalency, M; active = above 10 nM dye equivalent; inconclusive = 1 to 10 nM; inactive = 1 nM or less; about half of its hits are not listed in these tables;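 note: highest value over a series up to 38 µM; compound alone in buffer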
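Readout is A488 dye-equivalent concentration, calibrated by a per-plate six-point Alexa 488 series. Compounds in 100 mM Tris buffer pH 8.0 were incubated 15 min at room temperature. Plates were imaged using 480 nm excitation/540 nm emission filters.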
Resorufin autofl = resorufin region autofluorescence. 59,000 compounds, 0.04% hits. max dye-equivalent concentration, M. Compound fluorescence, resorufin region 547/598 nm, buffer; stronger effect = higher value; active = above 10 nM dye equivalent; inconclusive = 1 to 10 nM; inactive = 1 nM or less; a few of its hits are not listed in these tables; note: highest value over a series up to 38 µM
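Compounds in 100 mM Tris buffer, pH 8.0, incubated 15 min at room temperature, then read with 547 nm excitation and 598 nm emission filters. Fluorescence was converted to dye-equivalent concentration using an on-plate six-point resorufin standard curve.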
AID923 = qHTS Assay for Allosteric/Competitive Inhibitors of Caspase-1: Spectroscopic Profiling in AFC Spectral Region | Potency, µM (series often up to 57.5 µM), without a hit: at the highest dose fluorescence increase, hits mostly activators | compound fluorescence, AFC spectral region (405/520 nm); almost no hit is shown here | 75,000 compounds, 1.1% hits | AID 923, 2007; active = well fitted activation curve with a large enough effect; inconclusive = small, poorly fitted or top-dose-only effect;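 note: potency is the fitted concentration of half-maximal effect; 0% is about no effect; scaled to a free AFC standard on each plate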
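Baseline compound fluorescence (AFC region, 405 nm ex/520 nm em) taken from the intercept of kinetic reads with 50 nM caspase-1 and 5 uM Ac-WEHD-AFC; normalized to an on-plate AFC standard curve; compounds titrated up to 57 uM.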
Numbers without * were called inactive; i = inactive; ? = inconclusive; / = not tested or not shown; [ ] = remark or other dose. Not all compounds are listed. The share of hits here may be higher or lower than overall.

item | smiles | A647 fluor | TSHR ag | A488 fluor | Resorufin autofl | AID923
1 | CCCC(=O)Nc1cc(=O)[nH]c2ncnn12 | 3e-09 | ? | i | i | -0.5%
2 | CCn1c(SCC(=O)C(C)(C)C)nnc1-c1ccccc1OC | 1.1e-09 | ? | i | i | 1.0%
3 | COc1cc(S(=O)(=O)N2CCOCC2)ccc1NC(=O)COC(=O)c1ccccn1 | 5.6e-09 | 0% | i | i | 0.2%
4 | COC(=O)c1c(-c2cccc(C)c2)csc1N | 1e-09 | -5% | i | i | -0.6%
5 | CCOC(=O)N1CCN(c2cc(=O)n(-c3ccccc3Cl)c(=O)[nH]2)CC1 | / | ? | / | / | 1.9%
6 | CCC1(C)Cc2nc3sc(C(=O)O)c(N)c3cc2CO1 (configuration not stated) | 2.1e-08 | / | i | i | 7.8%
7 | COC(=O)C1=C(C)N(c2ccc(Cl)c(Cl)c2)C(=O)C1 | 1e-09 | 5% | i | i | 1.5%
8 | CC(C)c1nnc(NC(=O)CSc2ncn[nH]2)s1 | / | 5% | / | / | 1.8%
9 | Cc1ccc2cccc(NC(=O)c3ccc(Br)o3)c2n1 | 1.4e-08 | ? | i | i | -0.6%
10 | COc1ccccc1-c1nn2c(-c3ccc(C(C)(C)C)cc3)nnc2s1 | 4.7e-08 | / | i | i | /
11 | N#Cc1ccccc1Cn1c(=O)n(CCCC(=O)NCc2ccc3c(c2)OCO3)c(=O)c2ccccc21 | 2.2e-08 | 11% | i | i | 1.7%
12 | O=C(Nc1ccc2c(c1)OCO2)c1cnn2c1NC(c1ccco1)CC2C(F)(F)F (configuration not stated) | 2.8e-08 | -6% | i | i | -0.1%
13 | O=C(N/N=C1/C[C@@H](O)[C@@H](O)[C@@H]2[C@H]3C(=O)N(c4ccc(F)cc4F)C(=O)[C@@H]3CC[C@H]12)OCc1ccccc1 | / | -13%[11.4 µM] | / | / | -1.7%[11.5 µM]
14 | O=C(CCC1N=C2c3ccccc3N=C(SCc3ccc(Cl)cc3)N2C1=O)NCc1ccco1 (configuration not stated) | 1.6e-08 | ? | i | i | 1.9%
15 | COc1ccc(N(Cc2cc3ccc(C)cc3[nH]c2=O)C(C)=O)cc1 | 1e-09 | 2% | i | i | 0.0%
16 | CC1CC(C)(C)Nc2ccc(OC(=O)c3ccco3)cc21 (configuration not stated) | / | 21% | / | / | 0.7%
17 | CN(C)c1ccc(C2(c3ccc(N(C)C)cc3)OC(=O)c3cc(N(C)C)ccc32)cc1 | / | -2% | / | / | 3.4%
18 | C=CCSc1nc2ccccc2c(=O)n1Cc1ccco1 | 9.1e-09 | 10%[11.4 µM] | i | i | -0.3%[11.5 µM]
19 | CN(C)c1ccc(-c2cncnc2Nc2ccc(F)cc2)cc1 | 1e-09 | -8% | i | i | 0.8%
20 | CCOC(=O)Cc1csc(NC(=O)CS(=O)(=O)Cc2ccccc2)n1 | 2.9e-09 | -14% | i | i | 3.6%
21 | C=CCOC(=O)C(C#N)c1nc2ccccc2nc1N1CCCC1 (configuration not stated) | 2.8e-09 | 9% | i | i | 6.9%
22 | CCC/C=C(\CCC)C(NC(=O)c1cccs1)c1ccc(C(=O)OC)cc1 (configuration not stated) | / | ? | / | / | -1.1%
23 | O=C(NCc1ccccn1)c1ccc(Br)s1 | 2.3e-08 | 10% | i | i | -1.3%
24 | CCCC1c2ccc(C)n2CCN1C(=O)Nc1ccc(F)cc1 (configuration not stated) | / | 10% | / | / | 10%
25 | CCn1c(CC(=O)Nc2cccc(OC)c2)nnc1SCC(=O)N1CCN(c2ccccc2)CC1 | 1e-09 | -3% | i | i | -2.8%

A draw from above in order of molar mass, ascending:
item | smiles | A647 fluor | TSHR ag | A488 fluor | Resorufin autofl | AID923
8 | CC(C)c1nnc(NC(=O)CSc2ncn[nH]2)s1 | / | 5% | / | / | 1.8%
2 | CCn1c(SCC(=O)C(C)(C)C)nnc1-c1ccccc1OC | 1.1e-09 | ? | i | i | 1.0%
20 | CCOC(=O)Cc1csc(NC(=O)CS(=O)(=O)Cc2ccccc2)n1 | 2.9e-09 | -14% | i | i | 3.6%

(next part)
item | smiles | A647 fluor | TSHR ag | A488 fluor | Resorufin autofl | AID923
26 | Clc1ccc(CSc2nncn2-c2ccccn2)cc1 | 7.5e-09 | 4% | i | i | 1.2%
27 | O=C(OC(C(=O)NCC1CCCO1)c1ccccn1)c1cccs1 (configuration not stated) | 1.6e-08 | 0% | i | i | -0.2%
28 | Cn1cc(CNC(=O)COc2ccc(Cl)cc2Cl)cn1 | 1.2e-09 | -7% | i | i | 0.0%
29 | O=C(C1CC1)N1CCc2cc(S(=O)(=O)N3CCCc4ccccc43)ccc21 | 1.7e-08 | / | i | i | -1.0%
30 | O=C(C1CCN(c2nnc(-n3cccc3)s2)CC1)N1CCc2ccccc2C1 | / | ? | / | / | -2.3%
31 | O[C@@H]1C2CCCC1[C@]1(O)CCCCC1C2 (some centres not stated) | 3.4e-09 | 13% | i | i | 4.2%
32 | O=C1CCc2ccccc2O1 | / | 7% | / | / | 4.8%
33 | Cc1oc2cc(O)cc(C)c2c(=O)c1-c1cnn(-c2ccccc2)c1 | 1.9e-09 | / | i | i | /
34 | Cn1c(Cn2c(=O)sc3ccccc32)nnc1SCC(=O)Nc1ccc(Cl)cc1 | / | 0% | / | / | -0.3%
35 | COc1ccc(-n2c(SCC(=O)N3CCCCC3C)nnc2-c2cccnc2)cc1 (configuration not stated) | 3.7e-08 | -5% | i | i | -0.5%
36 | Clc1ccc(C2CC(c3cccs3)n3ncnc3N2)c(Cl)c1 (configuration not stated) | / | 1% | / | / | 3.3%
37 | Cc1cccc(NC(=O)c2c(O)c3cccc4c3n(c2=O)CCC4)n1 | 5e-09 | 19% | i | i | -0.1%
38 | O=C(O)COc1ccc(S(=O)(=O)c2ccc(OCC(=O)O)cc2)cc1 | / | -1%[11.4 µM] | / | / | 12%
39 | Cc1nc2c(c(=O)n1CC1CCCO1)c1nc3ccccc3nc1n2CC(C)C (configuration not stated) | 4.7e-09 | / | i | i | /
40 | O=C(COc1ccc(N2CC(C(=O)O)CC2=O)cc1)Nc1cccc(C(F)(F)F)c1 (configuration not stated) | 1.4e-08 | -2% | i | i | -1.9%
41 | O=C(O)CNS(=O)(=O)c1ccc(F)cc1 | / | 6% | / | / | 0.1%
42 | CC(C)=CC(=O)OCC(=O)Nc1ccccc1Cl | 1e-09 | 2% | i | i | -0.5%
43 | COc1cccc(C2CC(c3cccc(Br)c3)n3ncnc3N2)c1 (configuration not stated) | / | 14% | / | / | -2.4%
44 | COc1ccc(N2CCN(C(=O)c3cccc(N4C(=O)C5CC=CC(C)C5C4=O)c3)CC2)cc1 (configuration not stated) | 1.6e-08 | 2%[11.4 µM] | i | i | 2.2%
45 | CCn1c(SCC(=O)Nc2ccc3c(c2)c2ccccc2n3CC)nnc1-c1ccco1 | 2e-09 | -1% | i | i | -0.5%
46 | COC(=O)CNC(=O)[C@@]1(C)C=C[C@@H](Cc2ccccc2)N1C(=O)OC | / | 21% | / | / | -0.3%
47 | COc1ccccc1NS(=O)(=O)c1cc(C(=O)O)ccc1F | / | 1% | / | / | 0.2%
48 | CC(C)n1c(SCC(N)=O)nc2c1c(=O)n(C)c(=O)n2C | 4.7e-08 | -5% | i | i | 0.9%
49 | CC(C)CN1CCC2(CC1)CCN(C(=O)c1ccncc1)CC2 | 1.8e-08 | 1% | i | i | -3.1%
50 | Cc1ccc2c(c1)c1nc3ccccc3nc1n2CCN1CCOCC1 | 5.2e-09 | / | i | i | -0.4%

Further results.
item | smiles | A647 fluor | TSHR ag | A488 fluor | Resorufin autofl | AID923
51 | Cc1cnc(CNc2ccnc(-c3cccc(C#N)c3)n2)cn1 | 1e-09 | 11% | i | i | 0.0%
52 | O=C(Cn1cnc2c(cnn2-c2ccc(Cl)cc2)c1=O)NCC1CCCO1 (configuration not stated) | 5.9e-09 | 4% | i | i | -0.6%
53 | CSc1nc(C)c2c(c1C#N)CCCC2 | 2.3e-08 | / | i | i | /
54 | CCn1cc(C(=O)NCCCOC(C)C)c2cc(OC)c(OC)cc2c1=O | 1e-09 | 2%[11.4 µM] | i | i | -0.7%
55 | CN1CCN(C(=O)c2ccc3c(c2)NC(=O)C(C)(C)O3)CC1 | 6.1e-08 | -1% | i | i | 1.2%
56 | CC(=O)OC[C@H]1O[C@@H](O/N=C\[C@@H](C)[C@H](OCc2ccccc2)C(C)C)[C@H](OC(C)=O)[C@@H](OC(C)=O)[C@H]1OC(C)=O | / | -6%[11.4 µM] | / | / | 3.1%[11.5 µM]
57 | Cn1c(SCC(N)=O)nnc1C1CCN(S(=O)(=O)c2ccccc2C(F)(F)F)CC1 | 7.6e-09 | -10% | i | i | -2.9%
58 | Cc1nnc(N2C(=O)c3oc4ccccc4c(=O)c3C2c2ccco2)s1 (configuration not stated) | / | 2% | / | / | -0.5%
59 | O=C(C1CC1)N1CCN=C1SCc1ccc(F)cc1 | / | -2% | / | / | 1.2%
60 | CCOC(=O)c1sc(NC(=O)CSc2nnc(C)s2)c(C(=O)OCC)c1C | 1.4e-08 | ? | i | i | -0.5%
61 | CCOC(=O)N1CCC(NC(=O)CCc2nc(-c3ccccc3F)no2)CC1 | 2.5e-08 | -1% | i | i | -1.5%
62 | CCCN1CCN(C(=O)Cn2cccc2C(=O)c2ccccc2)CC1 | 9.9e-09 | 1% | i | i | 0.8%
63 | COC(=O)C(Cc1ccc(O)cc1)NC(=O)c1ccccc1OC (configuration not stated) | / | 0% | / | / | 0.1%
64 | COc1ccc(OCC(=O)Nc2cccc3ncccc23)cc1 | 1e-09 | 8% | i | i | 1.2%
65 | O=[N+]1C2=C(CCCC2)N([O-])C12CCCC2 | 1e-09 | -1% | i | i | -0.1%
66 | CCC(Sc1nnnn1C)C(=O)Nc1ccc(C(C)=O)cc1 (configuration not stated) | 5.9e-09 | -2% | i | i | -0.6%
67 | C/C=C/c1ccc(OCCCCn2cncn2)c(OC)c1 | 5.7e-09 | / | i | i | -2.5%
68 | C[C@H](CO)NC(=O)[C@H]1C[C@@H]1[C@H](NP(=O)(c1ccccc1)c1ccccc1)c1ccccc1 | / | 2% | / | / | -0.7%
69 | CC1=C/C(=C/N(C)c2ccccc2)C(=O)S1 | 4.2e-08 | -1% | i | i | 7.6%
70 | COc1ccc(S(=O)(=O)Cc2ccc(C(=O)N3CCN(c4cccc(C)c4)C(C)C3)o2)cc1 (configuration not stated) | / | 21% | / | / | 0.7%
71 | COCCNC(=O)Cn1cc2c(n1)CCCCC2 | / | 2% | / | / | -0.4%
72 | O=S(=O)(/C=C/c1ccccc1)Nc1ccc2c(c1)OCO2 | 6.8e-08 | / | i | i | /
73 | CCCn1c(SCC(=O)NC(=O)Nc2ccc(C)cc2C)n[nH]c1=O | 3.5e-08 | -9% | i | i | -1.3%
74 | COCCNc1ncnc2ccc(-c3ccc(C(=O)N(C)C)cc3)cc12 | 3.2e-08 | ? | i | i | 0.6%
75 | c1ccc2c(c1)oc1c(NCCCn3ccnc3)ncnc12 | 9.8e-09 | 4% | i | i | -0.4%

Further entries follow.
item | smiles | A647 fluor | TSHR ag | A488 fluor | Resorufin autofl | AID923
76 | Nc1ncnc2c1ncn2C1CCCC1 | 1e-09 | -9% | i | i | -0.3%
77 | NC(CSC12CC3CC(CC(C3)C1)C2)C(=O)O (configuration not stated) | 5.2e-09 | -1% | i | i | -1.8%
78 | CCOC(=O)C1CCCN(C(=O)c2cn(CC(C)C)c(=O)c3cc(OC)c(OC)cc23)C1 (configuration not stated) | 2.3e-08 | ? | i | i | -0.5%
79 | CCN1c2ccccc2-c2nc3ccccc3n2C1c1ccncc1 (configuration not stated) | 6.2e-09 | ? | i | i | 9.8%
80 | O=C(c1cn(-c2ccccc2)nc1-c1ccncc1)n1nnc2ccccc21 | 2.9e-08 | 2% | i | i | -1.8%
81 | CCOC(=O)c1ccc(NC(=O)Nc2ccc(OC)c(OC)c2)cc1 | 1.7e-09 | -18% | i | i | 3.1%
